rRNA inh HTS: selective bacterial rRNA inhibition in E. coli | E. coli WT GFP vs humanized-ribosome RFP mutants, fluorescence, 24 h; hits give low values; DMSO median 0, no signal -100 | GFP signal change (wild-type ribosome), % (concentration not given with the values) | AID 720706 | hit rate 1.6% among 350,000;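 active = significant combined selectivity score with lowered wild-type GFP, culture density cut under 30%, mutant RFP and density less affected; inactive = any of these conditions unmet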; also: one replicate is shown; some compounds called inactive have numbers as strong as hits
Bfl-1 A1 inh: inhibitors of the anti-apoptotic protein A1, read as caspase activation; MEF A1-2A-BIM cells, Caspase-Glo 3/7 luminescence, 3 h; percent of clofoctol response, vehicle zero; caspase activation, % (concentration not given with the values); hit rate 0.066% among 330,000; AID 2462;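 active = over half of replicate activation scores above 10%, or exactly half above 10 with the replicate mean above 10; inconclusive = replicate mean below 10 yet half the replicates above 10; inactive = over half of replicates below 10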;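 also: wells of about 30 µL received 50 nL stock; many hits fall short of the cut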
T cruzi repl: T. cruzi replication inhibition | T. cruzi beta-gal in NIH3T3, luminescence, 90 h | hit rate 1.4% among 300,000 | AID 1885 | inhibition, % (no concentration beside the values);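 active = mean inhibition across valid replicates above about 55%, limit read from the data; inconclusive = mean below that limit but half or more replicates reach it; inactive = mean below it, under half of replicates reach it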;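 also: signal also drops with host cell toxicity which is not excluded here; 0% = plate median of DMSO wells and 100% = zero luminescence signal; higher percent means less beta-gal luminescence so fewer parasites; stock transfer was 50 nL into about 50 µL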
RanGTP-Impb inh: disruptors of Ran-importin-beta complex formation – biochemical, FRET, CFP-Ran, YFP-importin-beta, homogeneous, primary screen | cell-free CFP-Ran/YFP-importin-beta FRET ratio | inhibition, % (concentration not given with the values) | hit rate 1.1% among 300,000 | AID 2216;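 active = most replicates above 15%; inconclusive = exactly half above 15%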;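 also: 0% = DMSO wells and 100% = Ran loaded with GDP instead of GTP; wells of about 40 µL received 100 nL stock; the first replicate is given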
MLL AF4-AF9 inh: inhibitors of human MLL-AF4/AF9 interaction; inhibition, % at 10 µM; P42568; AlphaScreen, biotin-AF4 peptide binding to FLAG-AF9; hit rate 0.47% among 350,000;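 active = every replicate reaching a set inhibition limit, whatever the replicate mean, cut at about 25% in these data; inconclusive = mean inhibition reaches that limit but some replicates miss it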;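 also: 0% = plate neutral control median and 100% = total signal loss; the record names both 10 and 1 µM as test concentration; the first replicate is given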
Target sequence (P42568 whole entry, looked up): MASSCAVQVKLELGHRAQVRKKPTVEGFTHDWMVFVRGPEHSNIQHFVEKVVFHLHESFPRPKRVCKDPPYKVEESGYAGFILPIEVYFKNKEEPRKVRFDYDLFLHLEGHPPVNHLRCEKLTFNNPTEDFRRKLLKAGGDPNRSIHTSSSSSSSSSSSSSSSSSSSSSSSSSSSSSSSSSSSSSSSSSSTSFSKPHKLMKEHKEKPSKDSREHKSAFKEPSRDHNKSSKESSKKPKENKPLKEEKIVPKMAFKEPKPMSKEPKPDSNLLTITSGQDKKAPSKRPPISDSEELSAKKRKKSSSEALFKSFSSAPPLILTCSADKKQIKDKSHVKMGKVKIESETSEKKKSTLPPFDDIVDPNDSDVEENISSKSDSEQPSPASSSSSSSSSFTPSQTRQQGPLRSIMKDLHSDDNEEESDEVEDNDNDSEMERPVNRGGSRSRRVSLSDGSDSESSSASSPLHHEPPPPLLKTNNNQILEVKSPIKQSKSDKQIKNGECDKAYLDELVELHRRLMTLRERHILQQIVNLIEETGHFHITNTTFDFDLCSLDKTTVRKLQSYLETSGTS
Vif A3G: inhibitors of Vif binding to APOBEC3G peptide, primary screen, biochemical, TR-FRET, GST-Vif 1-94, biotin-A3G peptide, dose response retest (AID 1117319). TR-FRET GST-Vif / biotin-A3G peptide binding; higher % means a stronger effect; test concentration not given here; strong numbers were not always called active. inhibition, %, or IC50 in µM where a hit was titrated. hit rate 0.57% among 260,000;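 active = above the screen mean plus three standard deviations and confirmed in dose response; inconclusive = results disagree or hit not tested in dose response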;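 also: Vif residues 1-94 fused to GST binding biotinylated APOBEC3G peptide 110-148; 0% = full assay without inhibitor and 100% = GST in place of GST-Vif; retest series ran down from 100 µM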
Beta cell apopt: blocks beta cell apoptosis; INS-1E cytokine-induced death, ATP luminescence, 48 h; percent of positive-control rescue, neutral wells zero; hit rate 0.8% among 300,000; protection from apoptosis, % (test concentration not listed);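 active = all replicates at 75% or more, or half of them and the mean; inconclusive = half reach 75% but not the mean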;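 also: 0% = cytokine-treated negative control wells and 100% = positive control rescue; higher means more ATP so stronger rescue from cytokine killing; wells of about 40 µL received 100 nL stock; the first replicate is given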
Calb FLC: C. albicans growth modulation with fluconazole; hit rate 0.57% among 300,000; C. albicans CaCi-2 (fluconazole-resistant clinical isolate) + fluconazole, Alamar Blue growth, 48 h; AID 1979; growth inhibition, % (test concentration not listed);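 active = most replicates above 75%; inconclusive = exactly half above 75%; inactive = most below 75%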;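 also: all wells also contain fluconazole at 8 µg/ml as a sub-toxic cotreatment; 0% = median of DMSO wells and 100% = median of geldanamycin control wells; wells of about 8 µL received 7.5 nL stock; the first replicate is given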
rRNA inh HTS OD600: further read-out of rRNA inh HTS, marked with its call; OD600 change, %; measured here: OD600 growth;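 optical density of the mix in the first replicate; 0 = DMSO median and -100 = no signal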
rRNA inh HTS RFP: recorded beside rRNA inh HTS, whose call it bears; RFP signal change, %; measured here: RFP humanized mutant strains;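 first replicate; 0 = DMSO median and -100 = no signal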
* = called active by the depositor; u = inconclusive; x = not tested or not shown; & = joins results of further samples; ! = a repeat was not active.

SMILES	rRNA inh HTS	rRNA inh HTS OD600	rRNA inh HTS RFP	Bfl-1 A1 inh	T cruzi repl	RanGTP-Impb inh	MLL AF4-AF9 inh	Vif A3G	Beta cell apopt	Calb FLC
CCC(C)NC(=O)c1ccccc1NC(=O)C(C)N(c1ccccc1)S(C)(=O)=O (stereo unspecified)	-2	7	4.1	0.3	-18	u	-32	23%	-1	-1
CC1(C)Cc2nc(Cl)c(C#N)cc2CO1	15	15	-0.6	-0.1	9	3.9	0.2	-6%	2	0
CC1CCC(C(C)C)C(OC(=O)Cn2c(-c3ccc(Br)cc3)[n+](C)c3ccccc32)C1 (stereo unspecified)	-59&-54	-82&-83	-22&-33	-0.3&-1.0	63*!	4.3&-1.7	14&18	8%	106*	108*
O=C(CN1CCN(Cc2ccccc2Cl)C1=O)NCc1ccco1	x	x	x	0.2	0	6.9	x	-2%	-6	-7
CCCCN(CCCC)c1ncnc2nc[nH]c12	-24	-22	-11	-0.3	5	u	2.9	x	-21	-17
C/C(CC(=O)N(C(C)C)C(C)C)=N\NC(=O)COc1ccc(Br)cc1Br	-4	-4	0.0	0.0	-16	u	0.1	9%	-8	-7
COC(=O)CCN(C(=O)c1cc([N+](=O)[O-])cc([N+](=O)[O-])c1)c1ccccn1	18	18	-1.2	1.1	65*	-5.9	-0.4	11%	-2	-3
CC1(C)Cc2nc(N)c(=O)sc2C1	1	1	-2.5	0.0	-22	6.3	1.4	14%	1	1
O=C(CCCOc1ccc(Cl)cc1)N1CCCCC1	-26	-23	-2.4	-0.3	-5	3.5	2.5	1%	-13	12
O=C(O)c1ccccc1/C=N/N1CCN(C2c3ccccc3-c3ccccc32)CC1	-3	-16	0.5	-0.6	-6	0.3	3.0	1%	-3	-28

Taken from the results shown for reference:
SMILES	rRNA inh HTS	rRNA inh HTS OD600	rRNA inh HTS RFP	Bfl-1 A1 inh	T cruzi repl	RanGTP-Impb inh	MLL AF4-AF9 inh	Vif A3G	Beta cell apopt	Calb FLC
CCC(C)NC(=O)c1ccccc1NC(=O)C(C)N(c1ccccc1)S(C)(=O)=O (stereo unspecified)	-2	7	4.1	0.3	-18	u	-32	23%	-1	-1
CC1(C)Cc2nc(Cl)c(C#N)cc2CO1	15	15	-0.6	-0.1	9	3.9	0.2	-6%	2	0

Next records.
SMILES	rRNA inh HTS	rRNA inh HTS OD600	rRNA inh HTS RFP	Bfl-1 A1 inh	T cruzi repl	RanGTP-Impb inh	MLL AF4-AF9 inh	Vif A3G	Beta cell apopt	Calb FLC
Cc1ccc(C2(C)NC(=O)N(CC(=O)N3CC(=O)Nc4ccccc43)C2=O)cc1 (stereo unspecified)	14	14	0.6	0.1	x	x	-6.8	-2%	-5	x
C=CCN1CC(=O)N2C(C)c3[nH]c4ccccc4c3C[C@H]2C1=O (stereo partly specified)	5	3	-2.6	0.2	6	8.1	3.9	-2%	-2	9
CCC1CCCCN1C(=O)COc1ccccc1NC(C)=O (stereo unspecified)	11	14	0.3	-0.3	15	-1.4	0.6	x	2	-1
COc1ccccc1NS(=O)(=O)c1ccc(NC(=O)c2[nH]nc(OC)c2[N+](=O)[O-])cc1	-23	-25	-0.9	-0.7	x	x	-1.3	x	1	-28
O=C(N/N=C/c1ccc(O)cc1O)NC12CC3CC(CC(C3)C1)C2	4	5	1.1	0.4	5	-3.1	-2.1	2%	10	-4
CC(=O)Nc1ccc(/C=C/c2ccc3c([N+](=O)[O-])cccc3n2)cc1	-6	1	0.3	0.4	13	-2.6	1.2	x	-1	5
O=[N+]([O-])c1ccc2nc(NS(=O)(=O)c3ccccc3[N+](=O)[O-])sc2c1	-29	-35	-1.7	u	-26	-1.1	1.2	x	-4	0
O=C(c1cccc2ccccc12)N1CCN(c2ccc([N+](=O)[O-])c(N3CCOCC3)c2)CC1	-12	-15	-6.4	-0.6	5	2.4	11	20%	-5	3
COc1cccc(N2[C@@H](CC(=O)O)c3ccc(/C=C/C(=O)O)cc3S2(=O)=O)c1	9	4	4.8	0.4	-8	1.9	1.6	x	-2	-1
O=C1CC(NC(=O)C(F)(F)F)c2cc3c(cc21)OCO3 (stereo unspecified)	-2	3	-5.7	0.2	-15	-5.8	-0.9	-6%	1	-2
CN(C)S(=O)(=O)c1ccc(NC(=O)CSc2nnnn2C)cc1	8	12	-3.6	0.0	0	0.4	1.9	32%	-3	-7
COc1cccc(CN2CCNC(=O)C2CC(=O)N(C)CCc2ccccn2)c1OC (stereo unspecified)	x	x	x	0.9	11	1.2	x	4%	-3	-26
Cc1ccccc1Cn1cc(NC(=O)CCCn2nc([N+](=O)[O-])cc2C)cn1	6	3	1.8	0.3	14	-2.3	0.5	0%	7	-6
CCOC(=O)C1CCN(C(=O)C23CC4CC(CC(C4)C2)C3)CC1	x	x	x	0.2	-1	1.2	x	-9%	-3	4
CCOc1ccc(NC(=O)C2CCCN(C)C2)cc1 (stereo unspecified)	9	5	-5.0	-0.1	9	3.0	u	x	-13	-5
O=C(NCc1cccc(Cl)c1)c1ccc2c(c1)OCCO2	-13	-17	5.8	1.0	-25	5.7	-4.4	x	4	14
COc1ccc(/C=C/C(=O)N2CC(C)OC(C)C2)cc1OC (stereo unspecified)	7	4	-0.9	2.0	-1	0.1	-0.1	x	3	1
CN(C)CCOC(=O)CCCCCCCCC(=O)OCCN(C)C	9	1	-1.6	0.6	-22	3.8	3.3	4%	-2	-9
Cc1[nH]c2ccc(C(=O)OC(C)C(=O)N(C)c3ccccc3)cc2c1C (stereo unspecified)	x	x	x	-0.1	9	-1.0	x	-1%	7	-3
Cc1cc(C)n(-c2ccc(NC(=O)C3CCCCN3C(=O)c3ccoc3)cc2)n1 (stereo unspecified)	1	-3	4.5	1.8	13	6.5	-0.9	x	0	-12
CN(CC(=O)Nc1ccc(Cl)c(C(F)(F)F)c1)C(=O)c1cccc2cccnc12	-2	-9	3.3	-1.7	x	x	-0.3	-7%	2	x
O=C(CN1C(=O)C2C3C=CC(C3)C2C1=O)OCC(=O)c1ccc(Br)cc1 (stereo unspecified)	-5	-11	-0.2	0.5	-21	4.9	-2.1	-3%	-3	2
COc1ccc(NC(=S)NN2CCN(C)CC2)cc1	x	x	x	-0.3	6	3.4	x	4%	-1	8
C=CCn1c(SCc2c(C)noc2C)nc2cc(C(=O)O)ccc2c1=O	x	x	x	-0.4	10	2.6	x	4%&0%	-2	26
C[n+]1cccc(O)c1SCc1ccccc1	29	15	7.0	-0.2	-20	1.5	-4.3	x	-5	8
CCOC(=O)c1c(C)[nH]c(C)c1S(=O)(=O)NCc1cc(C)ccc1C	-7	-8	0.9	0.4	2	-0.9	-3.8	x	-7	12
O=C(c1cnn2c(C(F)(F)F)cc(-c3cccs3)nc12)N1CCOCC1	6	-7	-2.0	-0.4	7	2.8	1.7	-8%	1	-8
O=S1(=O)CCOC[C@H](Cc2ccccc2)N1Cc1ccc(Cl)cc1	x	x	x	-0.8	12	-5.3	x	x	-6	9
COc1ccc(N(Cc2cc3cccc(C)c3[nH]c2=O)S(=O)(=O)c2ccc(Cl)cc2)cc1	9	9	-2.3	0.4	33	u	-0.7	-32%	11	2
O=C(Cc1cccs1)Nc1ccccc1C(=O)O	x	x	x	-5.7	-11	7.8	x	3%	-10	4
O=[N+]([O-])c1ccc(Oc2cc(NC3CCCCCCC3)c([N+](=O)[O-])cc2[N+](=O)[O-])cc1	6	7	-1.1	0.8	-6	-1.0	3.8	x	11	12
Cc1ccc(NC(=O)c2cccc(Oc3ccc([N+](=O)[O-])cc3)c2)c(C(=O)O)c1	-41	-72	-8.4	-0.7	-4	2.9	-2.3	-3%	-4	50
O=C(c1ccc(Br)s1)N1CCN(C/C=C/c2ccccc2)CC1	x	x	x	1.0	11	-6.1	x	6%	-2	-9
CCc1cccc2sc(NC(=O)C3CC3)nc12	-23	-25	-9.2	-0.6	-18	-3.3	-1.6	x	9	1
O=C(c1ccccc1)c1cnc[nH]1	1	1	-5.5	0.9	7	0.1	-0.6	16%	2	3
CCNc1nc(NCC)n2c(SCC(=O)Nc3ccc(C(F)(F)F)cc3[N+](=O)[O-])nnc2n1	x	x	x	-0.5	4	0.7	x	x	3	2
O=C(c1ccc(Cn2cc([N+](=O)[O-])cn2)o1)N1N=C(C(F)F)CC1(O)C(F)F (stereo unspecified)	-4	-4	-6.4	-0.8	11	2.3	1.4	1%	-3	3
Cc1cc(-c2ccc(C)c(S(=O)(=O)Nc3cc(C)on3)c2)on1	0	15	-4.6	0.1	5	1.1	-2.8	x	-6	4
N#Cc1c(-c2ccco2)ccn(Cc2ccc(F)cc2)c1=O	-6	-5	6.1	-0.3	-5	-2.7	1.7	3%	-7	-3
CCOC(=O)COc1cc(-n2c(=S)[nH]c3ccccc3c2=O)c(Cl)cc1Cl	-23*	-16*	1.8*	0.2	4	u	1.5	x	0	27
Cn1c(N2CCN(C(=O)Nc3ccc(F)cc3)CC2)nc2ccccc21	x	x	x	0.9	18	2.6	x	x	2	-12
COc1ccc(/C=C2\SC(=S)N(N3CCOCC3)C2=O)c(OC)c1	3	5	-1.2	0.5	1	2.0	x	x	-6	6
CN(C)C(=O)c1ccc(N/C=C(\C=O)c2nc3ccccc3o2)cc1	10	7	1.0	-0.4	-10	2.1	-1.2	x	-2	31
COc1ncccc1-c1nnn(-c2ccc(F)cc2)n1	10	6	-8.1	-6.8	-12	8.5	-2.6	-11%	5	-5
O=C(CN1C(=O)S/C(=C/c2cccnc2)C1=O)N1CCOCC1	2	10	-9.1	0.5	6	0.7	4.6	1%	-3	-13
COc1ccc(N2CCN(C(=O)C(=O)c3c(C)n(C)c4ccccc34)CC2)cc1	17	0	5.2	-0.7	31	6.3	0.4	x	x	5
CCc1nnc(N2C(=N)SCC2=O)s1	6	1	-6.1	0.2	1	5.1	-0.7	2%	6	18
CCCc1nc2ccccc2c(=O)n1NC(=O)c1c(O)c2cccc3c2n(c1=O)CCC3	x	x	x	-0.3	4	2.6	x	78%	-4	5
CCOc1cc(C(C(=O)NCC2CCCO2)N(C(=O)Cn2nnc3ccccc32)c2ccccc2C)ccc1O (stereo unspecified)	-1	-1	1.9	-0.1	-12	2.7	0.3	-2%	-6	35
C=CCn1c(C)cc(C)c(C#N)c1=O	x	x	x	0.1	-7	-3.7	x	29%	-9	-11
COc1ccc(C(c2sc3nc(C)nn3c2O)N2CCc3ccccc3C2)cc1 (stereo unspecified)	-2	-8	-0.7	0.5	11	1.4	-0.5	8%	-4	6
CCOC(=O)N1CCN(C(=O)COC(=O)C2CCN(S(=O)(=O)c3c(Cl)cccc3Cl)CC2)CC1	-4	-6	1.2	-0.1	-5	2.4	-24	-9%	1	0
O=C(CCn1nnc(-c2cccs2)n1)N1CCc2ccccc2C1	-16	-13	2.7	-0.1	2	-2.3	3.2	-6%	x	-26

Compound activity as filed in PubChem.

The list is partial. The share of hits here may be higher or lower than overall.
